PINK1 expr mod: PINK1 expression modulation | PINK1 immunofluorescence, high-content cytometry, 24 h | AID 624263 | Potency, µM (doses to about 76.6 µM), for inactives: top-dose activation (PINK1 increase), most hits filed as activators | hit rate 0.2% among 410,000; active = well fitted activation curve with a large enough effect; inconclusive = small, poorly fitted or top-dose-only effect; inactive = flat fitted curve, though single readings scatter; cell line not stated here;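 note: potency is the fitted concentration of half-maximal effect; % of control where 0% means no effect; nearly all actives have a fitted effect of over 65% in size; a mitochondrial uncoupler was the plate control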
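Cells are seeded, rested 12 hours, then given compound at five concentrations or DMSO for 24 hours. After fixation, blocking and antibody staining, PINK1 amount and mitochondrial localization are scored; CCCP serves as control.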
TRPML1 inh: inhibitors of human TRPML1 channel. TRPML1-inducible cells, Ca2+ dye fluorescence, FDSS; stronger effect = lower value; inhibition of EC80 agonist-evoked calcium signal. hit rate 0.02% among 390,000. activity change, negative = inhibition, % (no concentration beside the values); in the data active means activity change below about -50%; inconclusive means about -30% to -50%; inactive means above about -30%;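 note: stimulus is agonist 54-4 at its EC80 concentration; % is set by controls: 0 for no effect and ±100 for the full control effect; compound concentration not given in the record; the text of the record puts the active cut at -80%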
Target sequence (Q9GZU1 whole entry, looked up): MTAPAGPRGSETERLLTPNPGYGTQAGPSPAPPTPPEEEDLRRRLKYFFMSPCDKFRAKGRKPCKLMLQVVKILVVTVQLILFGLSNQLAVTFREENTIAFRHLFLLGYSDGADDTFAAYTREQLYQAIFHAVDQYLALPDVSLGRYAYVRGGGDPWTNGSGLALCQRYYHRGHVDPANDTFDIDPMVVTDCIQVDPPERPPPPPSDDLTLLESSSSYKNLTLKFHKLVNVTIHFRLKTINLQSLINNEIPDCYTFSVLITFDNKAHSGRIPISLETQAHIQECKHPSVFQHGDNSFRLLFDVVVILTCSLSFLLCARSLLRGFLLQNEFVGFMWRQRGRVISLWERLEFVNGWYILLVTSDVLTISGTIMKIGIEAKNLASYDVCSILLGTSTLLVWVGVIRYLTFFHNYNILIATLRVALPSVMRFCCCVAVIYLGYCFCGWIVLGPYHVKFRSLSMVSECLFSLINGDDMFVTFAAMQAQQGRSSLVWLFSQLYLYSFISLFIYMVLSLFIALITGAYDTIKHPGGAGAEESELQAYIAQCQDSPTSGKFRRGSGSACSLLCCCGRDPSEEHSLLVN
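Calcium fluorescence in TRPML1-DL cells induced overnight with Tet: a 110 s read after compound pin addition, then a 110 s antagonist read after challenge with 54-4 at 4 uM final (EC80).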
TRPML1 ag: agonists of human TRPML1 channel | Q9GZU1 | TRPML1-expressing cells, Ca2+ dye fluorescence, FDSS; host cell line not named in the record; reference of the full effect not given here | activation, % (no concentration beside the values) | hit rate 0.12% among 410,000 | AID 624414; in the data active = activation above about 50%; inconclusive = about 30% to 50%; inactive = below about 30%; note: 0% is about no effect; the text of the record puts the active cut at 80%
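TRPML1-DL cells, Tet-induced overnight (~16 h, 37 degrees C), loaded 45-90 min at room temperature with Ca8 no-wash calcium dye plus quencher. FDSS fluorescence: 10 s baseline, compound pin-transfer, 110 s agonist read, then EC80 54-4 (4uM final) and 110 s antagonist read.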
CtBP-E1A inh: blocks the CtBP interaction with E1A; AlphaScreen GST-E1A/His-CtBP binding, 1536-well; stronger effect = lower value; control for the full effect not named in the record; activity change, % (no concentration beside the values); hit rate 0.49% among 340,000; in the data active means activity change below about -65%; inconclusive means about -30% to -65%; inactive means above about -30%; note: % is set by controls: 0 for no effect and ±100 for the full control effect; compound concentration not given in the record
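Steps: dispense buffer (Tris pH 8.0, NaCl 300 mM, TCEP 1 mM, BSA, Tween 20); add 5X protein mix (GST-E1A, His-CtBP, 125 nM each); pin 23 nL compound; 2 h at 37 °C, dark; add 5X beads (50 ug/mL); 1 h; read.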
Six1-Eya2 inh: blocks human Six1 binding to Eya2; AlphaScreen GST-Six1/His-Eya2 binding, biochemical; stronger effect = lower value; control for the full effect not named in the record; activity change, % (concentration not given with the values); hit rate 0.56% among 360,000; in the data active = activity change below about -65%; inconclusive = about -30% to -65%; inactive = above about -30%; note: % is set by controls: 0 for no effect and ±100 for the full control effect
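GST-Six1 + His-Eya2 (5X stock: 250/500 nM); Tris pH 8.0, 300 mM NaCl, 0.05% BSA, 0.02% Tween 20; GSH donor/Ni acceptor beads; 1 h 37 °C dark; AlphaScreen readout.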
D2 agonist: human D2 receptor agonism in beta-arrestin assay; P14416; DiscoveRx PathHunter D2 beta-arrestin, luminescence, 90 min; 100% = 57 uM dopamine signal; activation, % (concentration not given with the values); hit rate 0.084% among 360,000; AID 624465; in the data active = activation above about 40%; inconclusive = about 15% to 40%; inactive = below about 15%; note: compound concentration not given in the record; the text of the record calls up to 30% inactive
Target sequence (P14416 whole entry, looked up): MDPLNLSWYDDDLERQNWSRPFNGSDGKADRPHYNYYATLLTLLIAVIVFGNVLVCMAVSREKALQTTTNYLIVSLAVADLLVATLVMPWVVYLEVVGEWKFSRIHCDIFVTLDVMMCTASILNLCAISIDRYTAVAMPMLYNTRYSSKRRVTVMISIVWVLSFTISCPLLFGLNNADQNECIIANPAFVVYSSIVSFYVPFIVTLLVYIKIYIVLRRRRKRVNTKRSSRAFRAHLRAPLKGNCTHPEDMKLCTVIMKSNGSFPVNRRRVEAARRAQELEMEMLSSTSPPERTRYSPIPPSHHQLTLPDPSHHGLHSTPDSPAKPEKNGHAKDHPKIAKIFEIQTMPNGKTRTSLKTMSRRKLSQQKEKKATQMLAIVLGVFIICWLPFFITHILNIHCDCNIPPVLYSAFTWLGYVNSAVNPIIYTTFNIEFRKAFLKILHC
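DiscoveRx PathHunter D2 beta-arrestin cells (2,100/well) attached overnight, then compound-stimulated 90 min at 37 C in HBSS/10 mM HEPES/0.1% Tween-20 buffer; beta-galactosidase complementation read by luminescence after 1 h at ambient temperature. Dopamine 57 uM final (EC100) as control.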
Numbers without * were called inactive; ? = inconclusive; nt = no result given; [ ] = remark or other dose.

SMILES	PINK1 expr mod	TRPML1 inh	TRPML1 ag	CtBP-E1A inh	Six1-Eya2 inh	D2 agonist
O=C(Nc1ccc(N2CCN(C(=O)c3ccccc3F)CC2)cc1)c1cncc(Br)c1	-2.9%	14	1.3	-7	-5	0.7
CCN(C(=O)COC(=O)c1ccccc1SCC(=O)N1CCCC1)C1CCS(=O)(=O)C1 (centres undefined)	0.5%	-3	-0.2	-3	-10	-3.6
COC(=O)c1sccc1NC(=O)Nc1ccc(C)cc1C	1.3%	-11	0.1	-2	-9	1.2
Cc1ccc([N+](=O)[O-])cc1S(=O)(=O)Nc1ccc(O)c(Sc2ncn[nH]2)c1	2.6%	-12	0.3	-1	-4	3.4
Cc1ccc(OCCn2cc(/C(N)=N/O)c3ccccc32)cc1C	1.4%	-30	-0.2	-23	-3	4.9
Cn1c(=O)c2cc(NC(=O)Nc3cccnc3)ccc2n1Cc1ccc(Cl)cc1	2.9%	nt	-0.7	-5	-12	6.8
CCc1ccc(NC(=O)N2CCN(C(=O)C3CCCO3)CC2)cc1 (centres undefined)	3.2%	20	-0.4	6	-2	-0.3
COc1ccc(OCC(=O)OCc2cc(=O)n3nc(-c4cccs4)sc3n2)cc1	2.0%	-17	-0.5	nt	nt	nt
Cc1ccc2c(c1)N(CC(=O)NCc1ccco1)C(=O)C(C(C)C)O2 (centres undefined)	0.9%	20	1.4	1	0	0.1
CC1CCN(C(=O)CSc2n[nH]c(-c3ccc(F)cc3)n2)CC1	0.5%	-1	-0.2	nt	nt	nt
NC(=O)C1CCN(CC(=O)Nc2ccccn2)CC1	-0.2%	5	0.1	-2	8	-0.7
COC(=O)c1sccc1NC(=O)CC1C(=O)NCCN1C(=O)c1c(F)cccc1Cl (centres undefined)	1.4%	10	2.1	-3	5	7.5
Cn1c(=O)cc(SCC(=O)NCCCN2CCOCC2)c2ccccc21	1.0%	17	0.0	-2	-7	-3.6
CCOc1ccc(S(=O)(=O)NCCC(=O)N(C)Cc2cccs2)cc1	0.5%	-15	0.1	21	7	-0.2
CS(=O)(=O)c1ccc(-c2csc(C(O)(c3ccccc3)C(F)(F)F)n2)cc1 (centres undefined)	-0.8%	nt	1.9	8	0	7.4
O=C(N/N=C/c1ccc(F)cc1)c1cc(-c2ccco2)nc2ccccc12	6.0%	5	-0.4	-4	?	-2.8
COc1ccc(-c2nn(-c3ccccc3)cc2/C=C/C(=O)OCC(=O)Nc2cccc(C#N)c2)cc1	5.0%	18	0.3	-5	2	-3.1
CCOC(=O)c1ccc(N[C@@H]2CCN3C(=O)c4ccccc4[C@@H]3C[C@H]2O)cc1	-0.4%	9	-0.2	-28	0	0.1
Nc1nnn(CC(=O)N/N=C/c2ccc(Cl)cc2Cl)n1	5.2%	4	0.5	nt	7	0.0
OC(CCN1CCCC1)(c1ccccc1)C1CCCCC1 (centres undefined)	0.2%	9	0.5	5	7	-5.6
CC(C)(C)c1ccc(OCC(=O)NC2CCS(=O)(=O)C2)cc1 (centres undefined)	-0.4%[38.3 µM]	5	0.1	1	3	0.7
COc1ccccc1NC(=O)c1nn(C)c2c1CS(=O)(=O)c1ccccc1-2	1.1%	-9	0.2	nt	nt	nt
COc1ccc(-c2nc3c4ccccc4[nH]c(=O)n3n2)cc1	1.9%[38.3 µM]	18	-0.4	-27	-22	-3.1
c1ccc(NN(Cc2ccncc2)c2ccccc2)cc1	0.5%	-2	1.0	0	-11	-0.9
CNC(=O)c1c(NC(=O)c2ccc(N3C(=O)CCC3=O)cc2)sc2c1CCCC2	1.4%	11	-0.1	-4	-5	-1.7

Other entries
SMILES	PINK1 expr mod	TRPML1 inh	TRPML1 ag	CtBP-E1A inh	Six1-Eya2 inh	D2 agonist
COc1cccc(NC(=O)C2C3CC4OC(=O)C2C4C3)c1 (centres undefined)	-2.8%	-2	0.4	4	10	-3.4
CCOc1ccc(NC(=O)Cn2nnc(-c3ccccc3NC(=O)C3CC3)n2)cc1	5.6%	11	-0.2	5	-1	-1.0
O=C(CCNC(=O)N1CC(=O)Nc2ccccc21)NCc1ccccc1Cl	0.2%	-8	-1.4	5	-3	1.2
O=C(CCN1CCN(CCO)CC1)Nc1ccc(OCc2ccccc2)cc1	-1.1%[38.3 µM]	2	0.1	4	-1	-0.5
Cc1cc(Cl)ccc1NC(=O)CCC(=O)N/N=C/c1cc([N+](=O)[O-])ccc1O	0.4%	7	1.8	-26	?	-9.0
Cc1cc(C)n2nc(SCC(=O)N(C)c3ccccc3)nc2n1	6.2%[38.3 µM]	7	-0.6	-1	-2	1.7
N#CCCNS(=O)(=O)c1ccc(C(=O)OCC2CCCCC2)cc1	3.3%	-8	1.3	-18	-6	-3.4
CN1OC[C@@H]2CN(S(=O)(=O)c3cc(Cl)cc(Cl)c3)[C@H](c3ccc(-c4ccc(C#N)cc4)cc3)C[C@@H]21	1.6%	37	0.8	25	20	6.0
CCc1nc2c(OCCOC)cccn2c1N(C)C(=O)c1ccc(C)cc1	2.0%	nt	-0.3	9	11	-5.7
CCc1ccc([C@@H]2C[C@H]3[C@@H](CN2S(=O)(=O)c2ccc(C)cc2)C(=O)C[C@@H](c2ccc(C)cc2)N3S(=O)(=O)c2ccc(C)cc2)cc1	1.0%	-14	0.4	2	6	-11
C/C(=N/NC(=O)c1ccc(Br)o1)c1ccncc1	1.2%	16	-0.6	-3	2	-3.9
C[C@H](CO)N1C[C@H](C)[C@@H](CN(C)S(=O)(=O)c2ccc(F)cc2)Oc2ccc(NC(=O)C3CCCCC3)cc2C1=O	5.6%	-2	-0.6	-4	-12	1.0
O=S1(=O)C[C@H](N2CC[C@@H](O)C2)[C@@H](COCc2ccccc2)N1	-0.4%	nt	0.1	16	5	-2.9
O=C(COC(=O)c1ccc[nH]c1=O)NC1CCCCCC1	-3.5%	-8	-0.3	-13	12	-5.5
CN(C)C(=O)c1nnsc1Sc1ccc(Cl)cc1	1.4%	21	1.7	3	10	-4.6
COc1ccc(NS(=O)(=O)c2cccc3cccnc23)cc1	-1.6%	19	0.6	-10	4	-0.3
COc1ccc(OC)c(C2=Nn3c(nnc3-c3cccc(OC(C)C)c3)SC2)c1	-1.8%	3	3.0	-8	0	-1.7
O=C1c2ccc(Br)cc2C(=O)N1c1ccc(Cc2ccncc2)cc1	0.4%	-1	1.1	-1	4	1.3
CCN(c1ccccc1)S(=O)(=O)c1ccc(Cl)c(C(=O)NCC2CCCO2)c1 (centres undefined)	0.3%	-10	0.0	10	8	1.2
CS(=O)(=O)N(CC(=O)N1CCCC1)c1cc(Cl)c(Cl)cc1Cl	?	-7	-0.4	0	1	-5.3
O=c1oc2cc(Br)ccc2n1CSC1=NCCS1	0.8%	-7	1.0	3	3	-7.5
O=C(COC(=O)C1CCN(S(=O)(=O)c2ccc3c(c2)OCCO3)CC1)NC1CCS(=O)(=O)C1 (centres undefined)	3.8%	-2	0.3	-3	3	-10
O=S(=O)(c1ccc(F)cc1)N1CCN(c2ccc(F)cc2)CC1	-0.1%	-29	1.8	-4	0	-1.5
O=C(N[C@@H](Cc1c[nH]c2ccccc12)C(=O)O)C1CCN(S(=O)(=O)c2cccs2)CC1	-2.6%	8	0.4	-7	0	0.3
Cc1cc(C)cc(NC(=O)CCN2CCCC2)c1	1.2%	1	0.2	nt	-6	-4.5

More structures
SMILES	PINK1 expr mod	TRPML1 inh	TRPML1 ag	CtBP-E1A inh	Six1-Eya2 inh	D2 agonist
c1ccc(-c2nnc3n2CCCC3)cc1	-5.7%[38.3 µM]	35	-1.0	7	4	-3.7
OC(c1ccc2ccccc2c1)c1ncc(-c2ccc(C(F)(F)F)cc2)[nH]1 (centres undefined)	-1.1%	nt	0.2	-18	-8	2.8
COC(=O)c1cccc(NC(=O)c2ccc(S(=O)(=O)N3CCN(C)CC3)cc2)c1	-1.9%	18	0.0	-11	-1	-0.6
CCCCN(Cc1nc2ccccc2c(=O)[nH]1)C(=O)CN1C(=O)NC2(CCCCC2)C1=O	-0.5%	-10	-0.2	nt	1	-4.9
O=C(c1ccccn1)N1CCCC(N2CCN(c3cccc(C(F)(F)F)c3)CC2)C1 (centres undefined)	0.1%	10	0.9	21	6	-2.4
CCCn1c2ccccc2c2nnc(SCC(=O)Nc3ncccn3)nc21	1.4%	-28	3.0	-13	-18	-11
Cc1ccn2c(NCc3ccccc3)c(-c3cccs3)nc2c1	-0.7%	16	1.3	-1	-6	4.4

16 structures already listed, sorted by heavy-atom count, highest first:
SMILES	PINK1 expr mod	TRPML1 inh	TRPML1 ag	CtBP-E1A inh	Six1-Eya2 inh	D2 agonist
CCc1ccc([C@@H]2C[C@H]3[C@@H](CN2S(=O)(=O)c2ccc(C)cc2)C(=O)C[C@@H](c2ccc(C)cc2)N3S(=O)(=O)c2ccc(C)cc2)cc1	1.0%	-14	0.4	2	6	-11
COc1ccc(-c2nn(-c3ccccc3)cc2/C=C/C(=O)OCC(=O)Nc2cccc(C#N)c2)cc1	5.0%	18	0.3	-5	2	-3.1
O=C(COC(=O)C1CCN(S(=O)(=O)c2ccc3c(c2)OCCO3)CC1)NC1CCS(=O)(=O)C1 (centres undefined)	3.8%	-2	0.3	-3	3	-10
CCCCN(Cc1nc2ccccc2c(=O)[nH]1)C(=O)CN1C(=O)NC2(CCCCC2)C1=O	-0.5%	-10	-0.2	nt	1	-4.9
CCOc1ccc(NC(=O)Cn2nnc(-c3ccccc3NC(=O)C3CC3)n2)cc1	5.6%	11	-0.2	5	-1	-1.0
COC(=O)c1cccc(NC(=O)c2ccc(S(=O)(=O)N3CCN(C)CC3)cc2)c1	-1.9%	18	0.0	-11	-1	-0.6
Cc1cc(Cl)ccc1NC(=O)CCC(=O)N/N=C/c1cc([N+](=O)[O-])ccc1O	0.4%	7	1.8	-26	?	-9.0
Cc1ccc([N+](=O)[O-])cc1S(=O)(=O)Nc1ccc(O)c(Sc2ncn[nH]2)c1	2.6%	-12	0.3	-1	-4	3.4
Cc1ccc2c(c1)N(CC(=O)NCc1ccco1)C(=O)C(C(C)C)O2 (centres undefined)	0.9%	20	1.4	1	0	0.1
CCc1ccc(NC(=O)N2CCN(C(=O)C3CCCO3)CC2)cc1 (centres undefined)	3.2%	20	-0.4	6	-2	-0.3
Cc1cc(C)n2nc(SCC(=O)N(C)c3ccccc3)nc2n1	6.2%[38.3 µM]	7	-0.6	-1	-2	1.7
COc1ccc(NS(=O)(=O)c2cccc3cccnc23)cc1	-1.6%	19	0.6	-10	4	-0.3
c1ccc(NN(Cc2ccncc2)c2ccccc2)cc1	0.5%	-2	1.0	0	-11	-0.9
Nc1nnn(CC(=O)N/N=C/c2ccc(Cl)cc2Cl)n1	5.2%	4	0.5	nt	7	0.0
O=c1oc2cc(Br)ccc2n1CSC1=NCCS1	0.8%	-7	1.0	3	3	-7.5
c1ccc(-c2nnc3n2CCCC3)cc1	-5.7%[38.3 µM]	35	-1.0	7	4	-3.7

Screening results from PubChem.
